Rce1 inhib – yeast Rce1p protease inhibitors, primary screen, biochemical, fluorescence, cell-free homogeneous; calls only; CAAX prenyl protease 2 (Saccharomyces cerevisiae (strain ATCC 204508 / S288c)), Q03530; AID 2563, 2010; 0.27% of 290,000 active; yeast membranes, quenched prenylated peptide cleavage fluorescence;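 active means fall in fluorescence gain of 50% or more versus controls, with final raw signal at or below 3038400; inconclusive means same 50% fall but final raw signal above 3038400; inactive means fall in fluorescence gain under 50%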;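 further: plate controls were neutral control wells for no effect and wells lacking membranes for full effect; tested at 10 µM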
Target sequence (Q03530 whole entry, looked up): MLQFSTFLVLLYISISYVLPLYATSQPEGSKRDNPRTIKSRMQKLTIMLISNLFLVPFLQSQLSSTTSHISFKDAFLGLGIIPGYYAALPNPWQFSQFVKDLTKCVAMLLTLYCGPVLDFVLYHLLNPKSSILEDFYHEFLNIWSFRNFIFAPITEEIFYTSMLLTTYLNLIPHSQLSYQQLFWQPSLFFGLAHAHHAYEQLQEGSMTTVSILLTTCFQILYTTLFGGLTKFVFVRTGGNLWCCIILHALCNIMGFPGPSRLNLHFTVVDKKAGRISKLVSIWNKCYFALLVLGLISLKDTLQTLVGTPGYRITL
HIV Env fusion – inhibitors of HIV-1 Env-driven cell-cell fusion, primary screen, HeLa-JRFL effector, CEM21 target cells, luciferase | 1.1% of 360,000 active | AID 651610, 2012 | inhibition, % at 12.3 µM;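 active means mean replicate inhibition score of at least 50 and every replicate individually at or above 50; inconclusive means only one of the two criteria met; inactive means mean below 50 and not all replicates reaching 50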;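 further: 0% = plate neutral controls and 100% = maraviroc near 300 nM; one replicate is shown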
eIF4H FP inh – human eIF4H binding inhibitors, primary screen, translation initiation inhibitor project, biochemical, uHTS, fluorescence polarization | eIF4H fluorescence polarization binding assay | 0.94% of 290,000 active | inhibition, % at 35 µM | Eukaryotic translation initiation factor 4H (Homo sapiens), Q15056;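 active means 50% or more with normal probe brightness, or confirmed in later tests; inconclusive means above 50% with abnormal brightness, or retests that disagree; inactive means below 50% or failed in later tests; about a fifth of its hits are not listed in these tables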;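 further: calls also rest on retests at 20 µM and on dose response follow-up; 0% = protein and probe with vehicle and 100% = probe without protein; strong numbers were not always called active; many hits fall short of the cut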
Yeast UUG start – modulators of yeast start codon fidelity, primary screen, whole organism, S. cerevisiae, single point, plate reader; S. cerevisiae UUG-firefly luciferase reporter, luminescence/redox ratio; activity score, % at 18.7 µM; 0.13% of 350,000 active;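 active means replicate mean at a twofold rise or more, about +100% in these data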;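 further: firefly luciferase made from a UUG start codon reports start codon fidelity; reporter light over untreated wells divided by growth signal over untreated wells; some hits fall short of that in this replicate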
PABP FP inh – PABP poly(A) RNA binding inhibitors, primary screen, biochemical, fluorescence polarization, uHTS; Polyadenylate-binding protein 1 (Homo sapiens), P11940; inhibition, % at 35 µM; 1% of 290,000 active;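 active means 50% or more with normal probe brightness, or confirmed in later tests; inconclusive means above 50% with abnormal brightness, or retests that disagree; inactive means below 50% or failed in later tests; about a fifth of its hits are not listed in these tables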;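 further: calls also rest on retests at 20 µM and on dose response follow-up; controls were probe without protein and protein plus probe with vehicle; some compounds called inactive have numbers as strong as hits; many hits fall short of the cut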
MT1-MMP act inh – blockers of MT1-MMP proenzyme processing, primary screen, HT1080 RFP-PRO-GFP cells, GFP/RFP fluorescence; Matrix metalloproteinase-14 (Homo sapiens), P50281; GFP/RFP ratio fluorescence, overnight; percent of plate control window, DMSO zero; GFP/RFP ratio change, % at 20 µM; 0.061% of 360,000 active; AID 651647, 2012;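 active means GFP/RFP ratio change of at least 30% with cell ATP level not reduced by more than half and red fluorescence within 50% of control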; further: strong numbers were not always called active
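Read-out: GFP/RFP fluorescence ratio; Test system: RFP-PRO-GFP reporter HT1080 cells; Compound dosing: single-point 20 µM compound, 1% DMSO; Times: overnight compound exposure at 37 °C.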
CSC inhib – cancer stem cell viability inhibitors, primary screen, luminescence; cancer stem cell-like cells viability; inhibition, % at 7.5 µM; 1.1% of 300,000 active; AID 2717, 2010;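 active means mean at 75% or more and at least half the replicates too; inconclusive means mean and replicates disagree; tested in HMLE shEcad cells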;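 further: 0% = median of negative and 100% = median of positive control wells; the first replicate is given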
MT1-MMP act inh RFP – further read-out of MT1-MMP act inh, marked with its call; RFP signal change, %; measured here: RFP expression control read;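 0 = vehicle wells; hits needed this value within 50% of zero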
Starred values were filed as active, the others as inactive; i = inactive; ? = inconclusive; . = not tested or not shown. An excerpt, so the mix of outcomes need not match the whole.

SMILES	Rce1 inhib	HIV Env fusion	eIF4H FP inh	Yeast UUG start	PABP FP inh	MT1-MMP act inh	MT1-MMP act inh RFP	CSC inhib
CC1CC(C)CN(c2ccc(C(=O)OCC(=O)NC3CCCc4ccccc43)cc2[N+](=O)[O-])C1 (stereo not drawn)	i	.	-7	.	-1	6	4	0
O=C(COc1ccc(CO)cc1)Nc1ccc(F)cc1	i	.	-6	-8	-7	-1	1	-21
O=c1cc(-c2ccccc2)nc2cc(-c3ccc(Br)cc3)[nH]n12	i	-30	-8	-4	-3	3	-9	68
COc1ccc(CNC(=O)c2sccc2-c2ccccc2)cc1OC	i	33	-5	5	-7	2	-11	7
COc1ccc(C2C(=O)N(CCc3ccccc3)CC(=O)N2C2CCCCC2)cc1 (stereo not drawn)	i	.	-7	17	0	3	-2	.
CCc1cccc(NC(=O)C2CCN(S(=O)(=O)c3ccc4c(c3)NC(=O)CO4)CC2)c1	i	1	-3	-18	4	4	-2	-14
Cc1cc(C(=O)CSc2nnnn2C)c(C)n1-c1cccc(F)c1	i	-108	4	-24	4	4	0	-17
CN(C)S(=O)(=O)c1cccc(NC(=O)COC(=O)CCc2nc3ccccc3s2)c1	i	.	-1	3	-1	1	3	10
Cc1ccccc1C(=O)NNc1ccc(-c2csnn2)cc1	i	-7	-5	-9	-10	1	-3	52
O=C1c2ccc(Br)cc2C(=O)N1c1ccc(Cl)cn1	i	-5	-4	-1	3	-4	-1	-2
O=C(O)CCCCCN1C(=O)c2ccc(C(=O)O)cc2C1=O	i	.	-11	-27	27	4	3	-27
O=C(O)CC(NC(=O)CCC1CCCCC1)c1cc([N+](=O)[O-])ccc1Cl (stereo not drawn)	i	8	-7	-10	-4	-3	1	-8
CC1(c2ccc(Cl)cc2)NC(=O)N(CN2CCOCC2)C1=O (stereo not drawn)	i	-3	-2	-14	-1	3	6	-5
O=C(c1cn(-c2ccccc2)nc1-c1cccs1)N1CCOCC1	i	.	-6	-18	1	1	4	10
Cc1ccc(-c2cc(C(=O)NCCCN3CCOCC3)no2)cc1	i	29	-10	-5	3	10	-4	-8
Cc1ccccc1NC(=O)NCC1CCN(C(=O)OC(C)(C)C)CC1	i	10	-6	.	5	2	-2	-1
CCCCC(=O)N1C/C=C\[C@H](c2ccc(OC)cc2)N(Cc2ccc(F)cc2)C(=O)[C@@H]1C	i	27	.	-16	.	-7	-13	-2
CC(C)(C)C(=O)Nc1c2c(nn1-c1ccccc1)CSC2	i	-6	7	-6	2	-2	-1	-15
Cc1ccc(-n2nnc3c(=O)n(Cc4cc(C)ccc4C)cnc32)cc1	i	-22	-7	-14	11	11	2	.
CCN(c1ccccc1)S(=O)(=O)c1ccc(C(=O)Nc2nccs2)cc1	i	.	4	-11	-6	5	-6	0
COc1cccc(CN2CC(C(=O)NCc3ccc(Cl)s3)CCC2=O)c1 (stereo not drawn)	i	0	1	-7	5	-1	-3	.
Cc1cc(C)c(OCCCCN2CCNCC2)c(C)c1	i	1	-4	-7	15	2	1	82*
O=C(NCCCN1CCCC1=O)c1ccc(NS(=O)(=O)c2ccccc2)cc1	i	.	.	-2	.	-1	4	-7
Cc1cccc(N2CCN(C(=O)CN3CCOc4ccccc43)CC2C)c1 (stereo not drawn)	i	10	-14	-11	6	1	-6	-6
Cc1cc(NC(=O)c2ccc(C)s2)n(-c2ccccc2)n1	.	-11	9	-9	1	-3	2	-9

Rewritten comma-delimited: entries from further up
canonical_smiles,Rce1 inhib,HIV Env fusion,eIF4H FP inh,Yeast UUG start,PABP FP inh,MT1-MMP act inh,MT1-MMP act inh RFP,CSC inhib
Cc1ccccc1C(=O)NNc1ccc(-c2csnn2)cc1,i,-7,-5,-9,-10,1,-3,52
CC(C)(C)C(=O)Nc1c2c(nn1-c1ccccc1)CSC2,i,-6,7,-6,2,-2,-1,-15
O=C(NCCCN1CCCC1=O)c1ccc(NS(=O)(=O)c2ccccc2)cc1,i,.,.,-2,.,-1,4,-7

Additional compounds
SMILES	Rce1 inhib	HIV Env fusion	eIF4H FP inh	Yeast UUG start	PABP FP inh	MT1-MMP act inh	MT1-MMP act inh RFP	CSC inhib
O=C(CSc1ncn[nH]1)NC12CC3CC(CC(C3)C1)C2	i	.	0	.	4	4	5	15
CC(C)CNS(=O)(=O)c1ccc(OCC(=O)Nc2ccc3c(c2)OCCO3)cc1	i	-61	-3	.	-6	-2	-6	-14
C=CCn1c(SCc2cccc(C#N)c2)nnc1-c1ccccc1O	i	13	2	-18	4	0	-2	11
CCC(=O)Nc1cccc(C(=O)/C=C/c2cc(Br)ccc2OC)c1	i	.	-9	.	3	2	-23	1
O=C(CNC(=O)c1ccccc1F)N/N=C\C=C\c1ccccc1	i	4	-1	9	?	1	2	-15
COc1cc(/C=N/n2c(C3CCCCC3)n[nH]c2=S)cc(OC)c1O	i	11	-1	-14	1	6	-1	-12
O=C(NCc1cccc(Cl)c1)c1cccc(C(F)(F)F)c1	i	.	-4	-5	-1	4	0	-2
O=C(CNC(=O)c1ccccc1F)c1ccccc1	i	-27	-1	-35	5	2	-2	-9
CN1C2CCC1CC(NS(=O)(=O)c1cc(Cl)c(Cl)cc1Cl)C2 (stereo not drawn)	i	11	5	-21	9	-1	4	6
O=[N+]([O-])c1ncccc1OCc1ccc(Br)cc1F	.	-4	4	-11	17	0	-1	0
CCn1c(N2CCN(C(=O)Nc3ccc(F)cc3)CC2)nc2ccccc21	i	.	2	-6	-5	0	-4	10
COc1ccc(CCn2c(NN=C3CCCC3)nc3c2c(=O)[nH]c(=O)n3C)cc1	i	-1	4	-7	-11	-1	2	5
CCOc1cc(S(=O)(=O)NCCCN2CCOCC2)c(C)cc1C	i	7	-4	-1	-6	3	5	8
O=C(NCCC(F)(F)F)C1Cc2c(-c3ccccc3Oc3ccccc3)ccnc2O1 (stereo not drawn)	.	12	.	-44	.	-3	-4	.
O=C(c1ccc(O)cc1)c1ccc(C(=O)O)c(C(=O)O)c1	i	-82	19	-11	10	2	2	-5
O=C(CN1CCC(O)CC1)N1c2ccccc2C=Cc2ccccc21	i	.	8	6	17	-3	0	-18
CC(C)(C)n1cnc2cc(NC(=O)c3cccs3)ccc21	i	-26	-2	-22	-7	3	3	-8
CCOCCCNc1nc2c(c(=O)n(C)c(=O)n2C)n1CCCc1ccccc1	i	25	-5	-6	6	-3	4	.
O=[N+]([O-])c1cccc(/C=N/Nc2nc(N3CCCCC3)nc(N3CCCCC3)n2)c1	i	29	-8	-12	-4	0	-5	-11
O=C(c1ccccc1)N(NC(=O)C(O)(c1ccccc1)c1ccccc1)c1cccc(F)c1	i	-10	5	.	10	-3	-6	5
CCCn1c(=O)[nH]c(=O)c2c(C(F)(F)F)cc(-c3ccc(C)cc3)nc21	i	1	-5	.	-10	9	-1	-6
NS(=O)(=O)c1ccc(-n2ncc3c(=O)[nH]c(SCC(=O)Nc4nccs4)nc32)cc1	i	-10	-4	-2	?	5	11	-2
CC(=O)c1ccccc1NC(=O)CSc1n[nH]c(=O)n1C1CC1	.	9	.	.	.	-1	1	8
NNC(=O)c1sc2cc(C(F)(F)F)cnc2c1-c1cccs1	.	5	3	-11	5	9	8	.
CN(C)CCn1c(=O)n(Cc2ccco2)c(=O)c2c3c(sc21)CCCCC3	i	49	-7	2	1	7	3	-12

One compound at a time, as listed above. Values in the order: Rce1 inhib	HIV Env fusion	eIF4H FP inh	Yeast UUG start	PABP FP inh	MT1-MMP act inh	MT1-MMP act inh RFP	CSC inhib
Record of `O=C(NCc1cccc(Cl)c1)c1cccc(C(F)(F)F)c1` = i	.	-4	-5	-1	4	0	-2
Record of `O=C(CN1CCC(O)CC1)N1c2ccccc2C=Cc2ccccc21` = i	.	8	6	17	-3	0	-18

Later entries:
SMILES	Rce1 inhib	HIV Env fusion	eIF4H FP inh	Yeast UUG start	PABP FP inh	MT1-MMP act inh	MT1-MMP act inh RFP	CSC inhib
CCOC(=O)C(C)Sc1nnc(-c2c[nH]c3ccccc23)n1C (stereo not drawn)	i	27	6	-11	2	0	-3	-5
O=C(c1ccc2c(c1)OCO2)N(c1ccc(Br)cc1)C1C=CS(=O)(=O)C1 (stereo not drawn)	i	1	-5	8	-8	0	2	-13
O=C(c1cc(-c2ccccn2)nc2ccc(Cl)cc12)N1CCN(CCc2ccccc2)CC1	i	5	48	.	28	-4	-7	7
O=c1[nH]c2cccnc2n(CCNc2ncc(C(F)(F)F)cc2Cl)c1=O	i	-12	-1	.	1	0	-3	-13
CCOc1ccc(NC(=O)CSc2nnc(C)n2Cc2ccccc2)cc1	i	-3	1	-14	-2	-1	0	7
COc1cc(/C=C2\SC(=O)N(CCN)C2=O)ccc1OS(=O)(=O)c1cc(C)ccc1C	i	-13	-6	.	-10	5	1	.
C=CCn1c(SCC(=O)O)nc2sc(CC)cc2c1=O	i	-8	4	.	9	-1	4	5
O=c1c2ccccc2oc2ccc(C#CC3(O)CCCCC3)cc12	i	-143	.	-75	.	2	-7	93*
CC(=O)Nc1ccc(NC(=O)Cc2ccc(S(=O)(=O)N3CCCCC3)s2)cc1	i	7	16	-1	-14	1	-2	-3
CCOC(=O)Cn1nc(C)c(NC(=O)c2cccc([N+](=O)[O-])c2)c1C	i	-7	1	.	-14	0	-3	-4
COc1cc2nc(CN(C)Cc3ccc(SC)cc3)[nH]c(=O)c2cc1OC	i	18	-14	4	5	4	-1	-5
CC(C)C(=O)Nc1cccc(C(=O)Nc2ccc3c(c2)OCO3)c1	i	-99	0	-32	-2	0	-1	-2
CSc1nc(N2CCN(C)CC2)c2c(c1C#N)CC(C)(C)OC2	i	0	0	.	15	-8	-6	4
C=CCNC(=O)/C(C#N)=C/c1ccccc1OCc1ccc(C(=O)OC)cc1	i	-9	-2	.	-8	-3	-8	.
COc1ccc(NS(=O)(=O)c2cccc(C(=O)N(C)CC(=O)Nc3ccc(C)cc3)c2)cc1	i	8	.	11	.	1	1	0
O=S(=O)(Cc1cc(-c2ccc(Cl)cc2)no1)c1ccccc1	i	.	1	-9	2	0	-4	-11
CN1/C(=C/C=C(C#N)C#N)C(C)(C)c2ccccc21	i	-14	?	-9	?	-126	6	-13
Cc1cc(C=C2C(=O)c3ccccc3C2=O)c(C)n1-c1cccc(C(=O)O)c1	i	-1	8	-13	-8	4	4	-9
CC(C)(C)OC(=O)NCc1ccc(NC(=O)c2nc[nH]c2C(=O)NCCN(CCNC(=O)c2[nH]cnc2C(=O)Nc2ccc(CNC(=O)OC(C)(C)C)cc2)CCNC(=O)c2[nH]cnc2C(=O)Nc2ccc(CNC(=O)OC(C)(C)C)cc2)cc1	.	6	.	-11	.	1	-2	-5
CCN(CC)S(=O)(=O)c1ccc(C(=O)NC(C)(C)C)cc1	i	-4	2	-6	2	0	2	-12
Cc1ccc(C)c(NC(=O)c2sc(Cl)nc2-c2ccccc2)c1	i	.	1	-18	-4	0	4	-3
N#Cc1cc(Sc2ccccn2)c([N+](=O)[O-])cc1C#N	i	2	49	-21	-1	-84	16	-8
CC(C)CNc1ncnc2c1ncn2[C@H]1CN(Cc2ccc(-c3ccccc3)cc2)C[C@@H](CO)O1	.	28	.	11	.	15	-31	.
CC(C)N=c1cc2n(-c3ccc(Cl)cc3)c3ccccc3nc-2cc1Nc1ccc(Cl)cc1	i	-19	.	-9	.	-16	-19	104*
COc1ccc(CC(=O)OCC(=O)N2N=C(c3ccccc3)CC2c2ccc(OC)cc2)cc1 (stereo not drawn)	i	21	-1	-15	1	5	4	-13
